# High-throughput results: PubChem, National Center for Advancing Translational Sciences (NCATS)
# Methyltransferases: Primary Screen for Target Class Profiling of Small Molecule Inhibitors of Methyltransferases | purified enzyme, MTase-Glo SAH luminescence; active compounds read low | calls only at 40 µM | hit rate 3.9% among 25,000 | AID 1745853, 2022; active = -50% or lower on at least one of six enzymes; inconclusive = the cases between; inactive = as a rule above -30% on all six;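 further: enzymes were COMT GAMT GNMT HNMT NNMT and PNMT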
#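 Each enzyme was reacted with SAM and its substrate, with compounds tested once at 40 uM; SAH formed was read by MTase-Glo luminescence.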
# Calls only; i = inactive; u = inconclusive; + = active, no number. On the % scale 0 is the no-effect control and ±100 the full control effect. Some of the compounds tested; rates above refer to the full screens.
SMILES	Methyltransferases
COC(=O)c1cc2n(n1)CC(C)(C(=O)NC1CCCCC1)N(Cc1ccc(Cl)cc1)C2=O (centres undefined)	i
CCCn1c(=O)c2ccc(C(=O)NC3CCCCC3)cc2n2c(SCC(=O)c3ccc(C)cc3)nnc12	i
CCc1ccccc1NC(=O)Cn1nc2n(C(C)C)c(=O)c3ccc(C(=O)NCC(C)C)cc3n2c1=O	i
NC(=O)C1CCN(C(=O)CCc2nnc3n(Cc4ccc(Cl)cc4)c(=O)c4ccccc4n23)CC1	i
CC1(C(=O)NCc2ccccc2Cl)Cn2cnc(C(=O)NCc3cccc(F)c3)c2C(=O)N1C1CC1 (centres undefined)	i
CCNc1nccc(N2CCC(CC(=O)N3CCN(c4ccccc4F)CC3)CC2)n1	+
CC1OC(=O)C[C@@H]2C(C(=O)O)=CO[C@@H](O[C@H]3O[C@H](CO)[C@@H](O)[C@H](O)[C@H]3O)[C@H]12 (some centres undefined)	i
Cc1cc(C)cc(NS(=O)(=O)c2cc3c(cc2C)n(C)c(=O)n3C)c1	i
NCc1cccc(-c2cncnc2)c1	i
O=C(NCc1ccc(Cl)cc1)c1ccc2cc[nH]c2n1	i
Cc1ncc(CN2CCCC2C(=O)Nc2ccc(-c3cccc(F)c3)cc2)[nH]1 (centres undefined)	i
CCNc1nc2c(s1)C(c1cccc(F)c1)CC(=O)N2 (centres undefined)	+
C=C(C)C(=O)O[C@H]1/C(C=O)=C\CC/C(CO)=C/[C@H]2OC(=O)C(=C)[C@@H]2[C@@H]1OC	i
CCc1ccc(/C=C2/SC(=S)NC2=O)cc1	+
CCNC(=O)CCC/C=C\C[C@@H]1[C@@H](/C=C/C(O)CCc2ccccc2)[C@@H](O)C[C@@H]1O (some centres undefined)	i
CCCC1c2ccc(C)n2CCN1C(=O)Nc1ccc(Br)cc1F (centres undefined)	i
C=C(C)[C@@]1(O)C[C@@]2(C)C(=CC1=O)CC[C@@H](O)[C@@H]2C	i
CCCCN1C(=O)c2cc(C(=O)Nc3ccc(F)cc3)nn2CC1(C)C(=O)NC1CCCC1 (centres undefined)	i
F[C@@H]1CN(C2CCC2)C[C@@H]1OCc1nc2ncccc2[nH]1	i
C=C(C)C1CCC(C)C12CC(O)C1(C)OC1C2OC(=O)C(N)CCC(=O)O (centres undefined)	i

# An excerpt of these results, with each value named:
CCNc1nccc(N2CCC(CC(=O)N3CCN(c4ccccc4F)CC3)CC2)n1
  Methyltransferases: +

CC1(C(=O)NCc2ccccc2Cl)Cn2cnc(C(=O)NCc3cccc(F)c3)c2C(=O)N1C1CC1 (centres undefined)
  Methyltransferases: i

C=C(C)[C@@]1(O)C[C@@]2(C)C(=CC1=O)CC[C@@H](O)[C@@H]2C
  Methyltransferases: i

# Next records follow:
SMILES	Methyltransferases
CC(C)OCCCn1c(=O)c2ccccc2n2c(SCc3cccc(F)c3)nnc12	i
C=CCn1c(=O)c2ccc(C(=O)NCC(C)C)cc2n2c(=O)n(CC(=O)N(C)c3ccccc3)nc12	i
COc1cccc(CN2CCc3nn(Cc4ccccc4)c(=O)n3CC2)n1	i
CNCc1cn(C2CCN(Cc3c(OC)ccc(F)c3F)CC2)nn1	i
CN1C(=O)c2cc(C(=O)NCc3ccc(F)cc3)nn2CC1(C)C(=O)NCc1ccc(F)cc1 (centres undefined)	i
Cc1ccc(C(=O)C(C)n2nc3n(C)c(=O)c4ccc(C(=O)NC5CCCC5)cc4n3c2=O)cc1C (centres undefined)	i
CCCCS(=O)(=O)Nc1ncnc(OCCOc2ncc(Br)cn2)c1-c1ccc(Br)cc1	i
O=C1N(Cc2ccccc2F)CCOC12CCN([S+](=O)([O-])c1cccnc1)CC2	i
CC(C)(Oc1nn(CCOc2ccccc2)c2ccccc12)C(=O)NCc1ccncc1	i
COc1ccc2nc3ccc(OC)cc3c(SCCCN)c2c1	u
CCc1ccccc1NC(=O)CSc1nnc2n(CC(C)C)c(=O)c3ccccc3n12	i
CC1=CCC2C(C)(CO)CCCC2(C)C1CC12OC1C(O)C(CO)=CC2O (centres undefined)	i
COc1ccc(CCN2CC(NC(=O)Cn3ccc(C)n3)CC2=O)cc1 (centres undefined)	i
CC(C)N1C[C@@H](COCc2ccccc2)[C@H](c2ccccc2)[S+]1(=O)[O-]	i
CC(C)c1ccc(N2C(=O)CSc3c(c4ccccc4n3C)C2C(=O)NCc2ccccc2)cc1 (centres undefined)	i
COc1c(C(C)C)c(O)c(O)c2c1C(OC)[C@H]1OC(=O)[C@@]23CCCC(C)(C)[C@H]13 (some centres undefined)	i
N#CC(CCCN1CCN(/N=C/c2cccnc2)CC1)(c1ccccc1)c1ccccc1	i
CCCn1c(=O)c2ccc(C(=O)NC(C)CC)cc2n2c(=O)n(CC(=O)Nc3cc(F)ccc3F)nc12 (centres undefined)	i
COc1ccc(-n2c(C)cc(CNS(=O)(=O)c3ccc4c(c3)oc(=O)n4C)c2C)cc1	i
CC12CCC3c4ccc(O)cc4CCC3C1CC(OC1OC(C(=O)O)C(O)C(O)C1O)C2O (centres undefined)	i
O=C(O)[C@H]1C[C@H](C(=O)NCc2ccccn2)CN(Cc2ccccc2)C1	i
CCOCCCNc1nc2c(S(=O)(=O)c3cc(C)ccc3C)nnn2c2ccccc12	i
COc1cc(/C=C/C(=O)OC2[C@H](O)CC(O)(C(=O)O)C[C@H]2O)ccc1O (some centres undefined)	u
COc1ccc(N(C(=O)c2cccc(C)c2)S(=O)(=O)c2ccc3c(c2)n(C)c(=O)n3C)cc1	i
COc1ccc(CNC(=O)C2(C)Cn3cnc(C(=O)NCc4cccc(Cl)c4)c3C(=O)N2C2CC2)cc1 (centres undefined)	i
CC1OC(O[C@H]2CC[C@@]3(C)C(CC[C@]4(C)C3CC=C3C5CC(C)(C)CC[C@]5(C(=O)OC5OC(CO)C(OC6OC(COC7OCC(O)C(O)C7O)C(O)C(O)C6O)C(O)C5O)CC[C@]34C)C2(C)C)C(O)C(O)C1OC1OCC(OC2OCC(O)C(O)C2O)C(O)C1O (some centres undefined)	i
CO[C@H]1O[C@@H]2O[C@@]3(C)CC[C@H]4[C@H](C)CC[C@@H]([C@H]1C)[C@@]24OO3	u
O=C(O)CNC(=O)C(CS)Cc1ccccc1 (centres undefined)	+
COCCNC(=O)c1cc2n(n1)CC(C)(C(=O)NCc1ccccc1)N(C)C2=O (centres undefined)	i
CC1(C(=O)NCc2ccc(Cl)cc2)Cn2c(ccc2-c2ccco2)C(=O)N1C1CC1 (centres undefined)	i
COC[C@@H]1CN(c2ncccn2)C[C@H]1C(=O)NCc1ccccc1OC	i
CNC(=O)[C@@H](Cc1ccccc1)N1CCC[C@H]1C(=O)NCC1CC1	i
C=C(C(=O)O)C1CCC2(C)CCC(O)C(C)(O)C2C1 (centres undefined)	i
Cc1cccc(C(=O)N2CCC(c3nc(C4CCOCC4)no3)C2)c1 (centres undefined)	i
Cn1cnc(S(=O)(=O)N2CCCN(C(=O)c3nccn3C)CCNC(=O)CC2c2ccccc2)c1 (centres undefined)	i
COC(=O)C(Cc1ccc(OCCn2c(=O)sc3cc(C(=O)c4ccccc4)ccc32)cc1)C(=O)OC	i
CCOC(=O)c1cc2n(n1)CC(C)(C(=O)NCCC(C)C)N(c1ccc(OC)cc1)C2=O (centres undefined)	i
CCS(=O)(=O)N1C[C@@H]2CN(Cc3ncc[nH]3)C[C@]2(C(=O)O)C1	i
O=S(=O)(NCCn1c(-c2ccccc2)nc2ccccc21)c1ccc(F)c(F)c1	i
Cc1ccc(C(=O)NCCn2c(C)cnc2C)s1	i
O=C(c1ccc(F)cc1)N1CCCCCC1c1nnc(-c2ccccc2)o1 (centres undefined)	i
Cn1cc(-c2cn(C)c(=O)n3cc(CNc4ccccc4)nc23)cn1	i
Cc1ccc(C)c(Cn2nc3n(CC(C)C)c(=O)c4ccc(C(=O)NC5CCCC5)cc4n3c2=O)c1	i
CCOC(=O)c1cc2n(n1)CC(C)(C(=O)NC1CCCC1)N(c1cc(Cl)ccc1OC)C2=O (centres undefined)	i
CCC(C)/C=C(C)/C=C/C1=CC2=C(Cl)C(=O)C(C)(OC(C)=O)C(=O)C2(O)C(OC)O1 (centres undefined)	i
COc1ccc2c(OC)c3ccoc3nc2c1OC	i
CCCCN1C(=O)c2cc3ccccc3n2CC1(C)C(=O)NC1CCCC1 (centres undefined)	i
CCCn1c(=O)c2ccc(C(=O)NC(C)CC)cc2n2c(=O)n(Cc3cccc(OC)c3)nc12 (centres undefined)	i
CN1CCCC2(CC1)CCN(C(=O)c1ccc(C#CC(C)(C)O)cc1)CC2	i
COc1cc(CC(=O)O)ccc1O	i
c1cncc(CN2CCOC[C@H]2c2ncc(-c3cccnc3)[nH]2)c1	i
Cn1nnnc1SCCNCc1ccc2c(c1)n(C)c(=O)n2C	i
O=c1c2ccccc2n2c(=O)n(Cc3ccc(Cl)cc3)nc2n1Cc1ccc(F)cc1	i
C=C1[C@H]2CC[C@H](C(=O)O)[C@@]23CC[C@H](C3)C1(C)C	u
CCOc1cccc(C2c3cccn3-c3sc4c(c3CN2C(=O)NCCC(=O)OC)CCCC4)c1 (centres undefined)	i
CN(Cc1cc(C2CC2)n[nH]1)c1cc(C2CC(N)C2)nc(N)n1 (centres undefined)	i
O=C(CCN1CCCCO1)N1CCOC(CCCc2ccccc2)C1 (centres undefined)	i
Nc1ccccc1NC(=O)c1ccc(CNC(=O)OCc2cccnc2)cc1	u
CCCn1c(=O)c2ccc(Cl)cc2n2c(SCc3ccccc3F)nnc12	i
Cc1sc2c(c1C)C(c1ccc(Cl)cc1)=N[C@H](CC(=O)NCCCCNC(=O)COc1cccc3c1C(=O)N([C@H]1CCC(=O)NC1=O)C3=O)c1nnc(C)n1-2	+

# Laid out differently: entries from further up
CCCCN1C(=O)c2cc3ccccc3n2CC1(C)C(=O)NC1CCCC1 (centres undefined)
  Methyltransferases = i
CCCn1c(=O)c2ccc(C(=O)NC(C)CC)cc2n2c(=O)n(Cc3cccc(OC)c3)nc12 (centres undefined)
  Methyltransferases = i
CN1CCCC2(CC1)CCN(C(=O)c1ccc(C#CC(C)(C)O)cc1)CC2
  Methyltransferases = i
COc1cc(CC(=O)O)ccc1O
  Methyltransferases = i

# The list continues.
SMILES | Methyltransferases
CC(C)N1C(=O)C2(CCCC2)C1C(=O)NCCCN1CCc2ccccc2C1 (centres undefined) | i
O=C(c1cccnc1OC1CCN(Cc2ccccn2)C1)N1CCCCC1 (centres undefined) | i
CCn1ncc(N2CCC(NC(=O)c3ccccc3)CC2)cc1=O | i
Cc1cn2nnc(C(=O)N3CCC(C(=O)Nc4cccc(F)c4)CC3)c2c(=O)[nH]1 | i
CCOC(=O)c1cc2n(n1)CC(C)(C(=O)NC1CCC(C)CC1)N(c1ccc(C)c(Cl)c1)C2=O (centres undefined) | i
CCCCN1C(=O)c2ccc(-c3ccccc3)n2CC1(C)C(=O)NC1CCCCC1 (centres undefined) | i
CCCNC(=O)N1CCOC[C@H](Oc2ccc(C(F)(F)F)cn2)C1 | i
Cc1ccc(N2C(=O)Cn3cccc3C2C(=O)NC2CCCCC2C)cc1 (centres undefined) | i
CCOC(=O)c1cc2n(n1)CC(C)(C(=O)NCc1ccc(F)cc1)N(c1cc(C)cc(C)c1)C2=O (centres undefined) | i
O=C(Cn1c(=O)oc2cc(S(=O)(=O)NCc3ccccc3)ccc21)NCc1ccco1 | i
Cc1ccc(N2C(=O)c3cc4ccccc4n3CC2(C)C(=O)NC2CCCC2)c(C)c1 (centres undefined) | i
CC(C)C(=O)OC[C@H]1O[C@H](O[C@H]2O[C@H](CO)[C@@H](O)[C@H](O)[C@H]2O)[C@H](O)[C@@H](O)[C@@H]1O | i
C=C1C(=O)O[C@H]2C[C@@H](C)[C@@H]3CCC(=O)[C@@]3(C)C[C@H]12 | i
CC(CN1C(=O)c2cc3occc3n2CC1(C)C(=O)NC1CCCCCC1)c1ccccc1 (centres undefined) | i
c1ccc(-c2nnc([C@H]3CCN(Cc4ccco4)C3)o2)cc1 | i
O=C1CCN(C(=O)c2ccsc2)CCCC(C(=O)N2CCN(c3ccccn3)CC2)CCN1 (centres undefined) | i
CC1CCC2C(C)(C)C(O)CCC2(C)C12Cc1c(O)cc3c(c1O2)C(N)=NC3 (centres undefined) | i
COCCN1CCCCCC(O)c2cc(C(=O)N(C)CCCc3c(C)nn(C)c3C)ccc21 (centres undefined) | i
O=C(NCc1ccc2c(c1)OCO2)c1ccc2c(=O)[nH]c3c(C(=O)NCC4CCCO4)sc(=S)n3c2c1 (centres undefined) | i
O=C1NCCOCCCN(C(=O)NCCc2ccccc2)[C@H]2CCCC[C@@H]12 | i
CC(C)NC(=O)O[C@@H]1CC[C@]2(C)C(CC[C@@H](O)[C@H]2CC(=O)NCc2ccco2)[C@]1(C)CO (some centres undefined) | i
COc1ccc(CNC(=O)Cn2ccc3cc(S(=O)(=O)N4CCC(C)CC4)ccc32)cc1OC | i
Cc1ccc(NC(=O)Cn2c(=O)oc3cc(S(=O)(=O)N4CC(C)CC(C)C4)ccc32)c(Cl)c1 (centres undefined) | i
CCOc1ccc(CN2C(=O)c3cc4ccccc4n3CC2(C)C(=O)NCCCOC(C)C)cc1 (centres undefined) | i
COc1cc2ncnc(Oc3ccc(CC(=O)Nc4cnn(C(C)C)c4)cc3)c2cc1OC | i
CCCC1c2cccn2CCN1C(=O)Nc1ccc(F)c(Cl)c1 (centres undefined) | i
